# AID504770 = growth inhibitors of E. coli YBA685 in a screen for V. cholerae RctB (chromosome II replication) inhibitors; z-score (test concentration not listed); 0.27% of 130,000 active; E. coli YBA685 rctB-dependent plasmid, OD600 growth, 3 h; hits give low values;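 active = z-score under -2 on both plates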;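 also: wells of about 30 µL received 100 nL stock; score is relative to mean and SD of the test wells; the first replicate is given; strong numbers were not always called active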
# CapD inh = CapD enzyme inhibition; 0.23% of 140,000 active; z-score (no concentration beside the values); purified CapD enzyme, fluorescence intensity read-out; hits give low values; some hits fall short of the stated cut;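 active = z-score under -4 in either of two replicates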;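 also: stock transfer was 100 nL into about 40 µL; score is relative to mean and spread of the plate; one replicate is shown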
# An asterisk follows results filed as active; . = no result given. Rows were taken by chance; any-hit rate near 0.37%.
entry	canonical_smiles	CapD inh	AID504770
1	CCN(CC)S(=O)(=O)c1ccc(N=NC2=C(O)CCCC2=O)cc1	.	-0.05
2	N#Cc1ccc(C(N)CC(=O)O)cc1 (stereo not drawn)	0.36	1.1
3	O=C1C2=C(c3ccccc3)c3cc(F)ccc3C2Sc2ccccc21 (stereo not drawn)	-0.12	3.7
4	Cc1ccc(C)c(C(O)C(=O)O)c1 (stereo not drawn)	0.54	.
5	CSc1ncc(C(=O)NC2CCN(Cc3ccccc3)CC2)c(C(F)(F)F)n1	-0.62	-0.6
6	CC(C)c1cc(NC(=O)COC(=O)c2ccccc2Oc2ccccc2)on1	.	0.55
7	c1cncc(CNC2=NCCC2)c1	.	-1.1
8	CCN(CC)S(=O)(=O)c1ccccc1/C=N/O	0.64	0.7
9	CCOc1ccc2nc(SCc3ccc(C#N)cc3)[nH]c2c1	.	0.15
10	O=C(NC1CCN(Cc2ccc3ccccc3c2)C1)N(Cc1ccco1)Cc1cc2ccccc2o1 (stereo not drawn)	-0.015	.
11	O=C(COC(=O)C(c1ccccc1)c1ccccc1)NC1CCCCC1	-0.085	-0.2
12	CCCS(=O)(=O)NCc1cn2ccc(C)cc2n1	11	-0.6
13	CCc1ccccc1N1C(=O)CC(=O)NC1=S	0.36	0.1
14	COc1ccc(-c2nc(=O)[nH]c(=O)[nH]2)cc1	.	-0.4
15	O=C(CNC(=O)c1ccccc1)NCc1ccco1	.	1.2
16	Cc1ccc(S(=O)(=O)N2CCN(c3nc4ccccc4s3)CC2)cc1	-0.62	.
17	COc1ccc(-c2noc(CN(C(C)=O)C3CCCCC3)n2)cc1	.	-0.5
18	CCN1C(=O)C2C(c3ccccc3O)NC(CCSC)(C(=O)O)C2C1=O (stereo not drawn)	0.92	.
19	Cn1cnnc1SCC(=O)C(C)(C)C	.	1.6
20	COc1nc(-c2ccc(Cl)cc2)nc2ccccc12	-0.43	-0.4
21	O=C1C=C(c2cccs2)C[C@H](c2ccccc2)[C@H]1n1nnc([N+](=O)[O-])n1	0.03	.
22	COCC(C)NCc1ccccc1C (stereo not drawn)	.	0.3
23	CCCCOc1ccc(OCCNC(=O)c2ncn[nH]2)cc1	-0.005	-1.8
24	Cc1nn(-c2ccccc2)c(C)c1/C=C/C(=O)OCC(=O)N1CC(=O)Nc2ccccc21	.	0.5
25	Cn1[nH]c(=O)c2ncccc2c1=O	.	-0.9
26	Cc1ccc(/C=N/N=C2\CC3CCC2(C)C3(C)C)o1 (stereo not drawn)	.	-1.1
27	O=C(COC(=O)Cc1ccccc1)NC1CCCc2ccccc21 (stereo not drawn)	0.32	0.2
28	CCC(C(=O)N1CCN(c2cccc(Cl)c2)CC1)c1ccccc1 (stereo not drawn)	0.24	-0.65
29	N=C(N)SCc1ccc(-c2csnn2)cc1	-0.48	.
30	O=C(O)CCCC(=O)Nc1ccc(Cl)cc1	-0.01	-0.95

# Quoted at random: 4 compounds from above, in no set order.
entry	canonical_smiles	CapD inh	AID504770
5	CSc1ncc(C(=O)NC2CCN(Cc3ccccc3)CC2)c(C(F)(F)F)n1	-0.62	-0.6
18	CCN1C(=O)C2C(c3ccccc3O)NC(CCSC)(C(=O)O)C2C1=O (stereo not drawn)	0.92	.
19	Cn1cnnc1SCC(=O)C(C)(C)C	.	1.6
1	CCN(CC)S(=O)(=O)c1ccc(N=NC2=C(O)CCCC2=O)cc1	.	-0.05

# Next part.
entry	canonical_smiles	CapD inh	AID504770
31	O=C(CC(C(=O)c1cccnc1)c1cccs1)c1ccc(Cl)cc1 (stereo not drawn)	-0.41	-0.65
32	COc1cc(C2NC(=O)N(C)C(C)=C2C(=O)OCCc2ccccc2)cc(Br)c1O (stereo not drawn)	-0.05	.
33	COc1cc(C(=O)Sc2ccc(Cl)cc2)cc(OC)c1OC	-0.37	2.7
34	COCCn1cnc2c1c(=O)n(CC(=O)NC(=O)NC1CCCC1)c(=O)n2Cc1ccccc1	.	-2.4
35	S=C(Nc1ccccc1)Nn1cnnc1	.	0.15
36	CC(=O)Nc1cc(C(=O)N2CC=C(c3ccccc3)CC2)ccc1Sc1ccc(Cl)cc1	-0.095	-0.15
37	Cc1ccnc(N(C(=O)c2nn(C)c3c2COc2ccccc2-3)C(=O)c2nn(C)c3c2COc2ccccc2-3)c1	0.72	2.4
38	Fc1ccccc1-c1noc(NCC2CCCO2)n1 (stereo not drawn)	0.47	0.25
39	O=C(OCC(=O)N1CCCC1)c1ccc(S(=O)(=O)Nc2ccccc2)cc1	.	0.05
40	COc1ccc(S(=O)(=O)Nc2nc(O)c(C3=c4cc(Cl)ccc4=NC3=O)s2)cc1	-0.3	.
41	Cc1cc(N=C(N)N=C(N)N)no1	0.48	.
42	O=C(NC(Cc1c[nH]c2ccccc12)C(=O)NNC1=NCCC1)c1ccccc1 (stereo not drawn)	.	-0.65
43	COc1ccccc1CN(C(=O)c1ccc(C(F)(F)F)cc1)c1ccc2[nH]c(C(C)(C)C)cc2c1	-0.47	.
44	COc1ccccc1C(=O)NCCSc1c[nH]c2ccccc12	0.045	-1.1
45	O=C(Cn1cnc2c(oc3ccccc32)c1=O)N1CCCC1c1ccc2c(c1)OCCCO2 (stereo not drawn)	.	0.05
46	CCCN1CCN(c2ncnc3sc(C(=O)N4CCN(c5ccc(F)cc5)CC4)c(C)c23)CC1	-0.95	.
47	COc1ccc(NC(=O)NC(C)C2CCCO2)c(OC)c1 (stereo not drawn)	0.33	0.2
48	CC1CN(C(=O)c2ccc(NC(=O)c3ncoc3-c3ccc4ccccc4c3)cc2)CC(C)O1 (stereo not drawn)	.	-0.85
49	COc1ccc(CS(=O)(=O)CC(C)(O)c2ccc(Cl)c(Cl)c2)cc1 (stereo not drawn)	-0.29	.
50	O=C(NCc1ccc(-c2ccc(F)cc2F)o1)c1ccccc1	-0.12	-0.8
51	Cc1nn(CC(O)CN2c3ccccc3Sc3ccccc32)c(C)c1Br (stereo not drawn)	0.74	0.2
52	N#CCCS(=O)(=O)c1ccc(Br)cc1	-0.11	-1.1
53	COc1ccc(-c2ccnc(-c3ccc(OC(=O)c4cccs4)cc3)n2)cc1	-0.34	.
54	c1ccc2c(c1)nnn2-c1ncnc2sccc12	.	-0.25
55	CN1C(=O)OC(c2ccccc2)C1=O (stereo not drawn)	-0.11	0.15
56	COC(=O)C1=C(C(=O)OC)SC2(S1)C(C(=O)OC)=C(C(=O)OC)SC1=C2c2cc(C)ccc2N(C(=O)C(F)(F)F)C1(C)C	0.13	.
57	N#CC(C(=O)CN1CCN(c2ccccc2)CC1)c1ccccc1 (stereo not drawn)	-0.35	-0.5
58	COC(=O)CN(c1nc(C)cc(OC)n1)S(=O)(=O)c1ccccc1	-0.31	.
59	N#Cc1ccc(-c2cc(C(F)(F)F)ccc2Cl)o1	0.03	-0.05
60	Cc1noc(/C=C/N(C)C)c1S(=O)(=O)N1CCCC(C(=O)NC2CCCCC2)C1 (stereo not drawn)	1.7	0.5
61	Cc1ccc(-n2nc3c(c2NC(=O)c2ccc(S(=O)(=O)N4CCCC4)cc2)CS(=O)(=O)C3)c(C)c1	-0.13	.
62	COc1ccc2nc(SCC(=O)Nc3ccc(NC(C)=O)cc3)n(S(=O)(=O)c3ccc(C)cc3)c2c1	-0.39	.
63	CC(=O)N1CCc2cc(C(O)CN3CCN(C4CCCCC4)CC3)ccc21 (stereo not drawn)	1.1	1.8
64	Clc1ccc(-c2nccc(-c3cc(-c4ccccc4)no3)n2)cc1	0.54	-0.15
65	OCCNc1nc2ccccc2[nH]1	-0.49	0.05
66	NNc1nc2ccccc2c(=O)n1Cc1ccccc1	.	-0.1
67	COC(=O)c1cccn1-c1ccc(Br)cc1	-0.94	-0.4
68	Cc1ccc2nc(-c3ccc(C)c(NC(=O)c4ccc5c(c4)OCCO5)c3)oc2c1	0.98	.
69	Cc1c(NS(=O)(=O)c2ccc(Cl)c(C(=O)OC(C)C(=O)N3CCOCC3)c2)c(=O)n(-c2ccccc2)n1C (stereo not drawn)	.	-0.1
70	O=C(CSc1ncnc2c1nnn2Cc1ccccc1)NCc1ccccc1	0.16	0.1
71	Cc1c(C)n(Cc2ccccc2)c2ccc(C(=O)Nc3ncn[nH]3)cc12	3.2	3.4
72	Cc1ccc(NC(=O)CC2Oc3ccc(C)cc3NC2=O)cc1 (stereo not drawn)	-0.85	-0.85
73	O=C(O)c1cc(-c2ccccc2)c(C(=O)O)cn1	0.18	-0.8
74	COc1ccc(OC)c(C2C(N3C(=O)c4c(Cl)c(Cl)c(Cl)c(Cl)c4C3=O)C(=O)N2c2ccc(C)c(Cl)c2)c1 (stereo not drawn)	-0.22	.
75	COc1ccccc1C1/C(=C(\O)c2ccc(Cl)cc2)C(=O)C(=O)N1CCC(=O)O (stereo not drawn)	-1.7	-0.3
76	Cc1c(Cc2ccccc2)sc(/N=C/c2ccc3ccccc3c2)c1C(N)=O	-0.47	2.7
77	CCCc1ccc(S(=O)(=O)NCc2ccc(C(F)(F)F)cc2)cc1	0.89	.
78	Cc1ccc(C2=NN(C(=O)CN3CCC(C)CC3)C(c3ccco3)C2)cc1 (stereo not drawn)	.	-0.15
79	Cc1ccc(N/C(SCc2ccc(Cl)cc2)=C(/C#N)C(=O)NCc2ccco2)cc1C	-0.32	.
80	C/C(N)=C(/C#N)C(=O)CSc1nc(-c2ccc(C)c(C)c2)cn1-c1ccccc1	.	-0.5
81	C=CCn1cnc2scc(-c3ccc(OC)cc3)c2c1=O	7.2	-0.3
82	COc1ccc(N=c2ssc3c2-c2cc(C)c(C)cc2NC3(C)C)cc1	-0.05	.
83	Cc1nc(C(=O)Nc2cc(Cl)cc(Cl)c2)nn1-c1ccc(Cl)cc1	0.15	.
84	C=CCn1c(N)cc(=O)nc1SCC(=O)OC1CC2CCC1(C)C2(C)C (stereo not drawn)	-0.085	-0.5
85	COc1ccc(C2SCC(C(=O)NC(C)C)N2C(=O)Nc2ccc(C)c(C)c2)cc1 (stereo not drawn)	0.91	0.25
86	N#Cc1ccc(Cl)cc1NC(=O)COC(=O)CSc1ncnc2sccc12	.	-0.1
87	CCOC(=O)c1c(-c2ccc(C)cc2)csc1NC(=O)c1ccco1	3.9	-0.6
88	CC(Oc1ccccc1)c1ccn[nH]1 (stereo not drawn)	-0.66	-1.4
89	Clc1ccc(-n2ccnc2Sc2ncnc3sc4c(c23)CCCC4)cc1	.	0.2
90	Cc1cc2nc(-c3cccnc3Cl)n(Cc3ccccc3F)c2cc1C	0.29	.

# Exported field by field: 2 of the compounds above
(73) O=C(O)c1cc(-c2ccccc2)c(C(=O)O)cn1
  CapD inh: 0.18
  AID504770: -0.8

(74) COc1ccc(OC)c(C2C(N3C(=O)c4c(Cl)c(Cl)c(Cl)c(Cl)c4C3=O)C(=O)N2c2ccc(C)c(Cl)c2)c1 (stereo not drawn)
  CapD inh: -0.22
  AID504770: .

# Returning to the listing, repeating the 3 entries before the break.
entry	canonical_smiles	CapD inh	AID504770
88	CC(Oc1ccccc1)c1ccn[nH]1 (stereo not drawn)	-0.66	-1.4
89	Clc1ccc(-n2ccnc2Sc2ncnc3sc4c(c23)CCCC4)cc1	.	0.2
90	Cc1cc2nc(-c3cccnc3Cl)n(Cc3ccccc3F)c2cc1C	0.29	.
91	O=C1S/C(=C\c2ccc(F)cc2)C(=O)N1c1ccccc1	0.3	0.05
92	O=C1c2ccccc2-c2onc3c(N4CCCCC4)cc(Nc4ccccc4)c1c23	0.16	.
93	CCOC(=O)c1c(NC(=O)CSc2nnc(CNC(=O)c3ccco3)n2-c2ccc(F)cc2)sc2c1CCC2	-0.02	.
94	CCOC(=O)CC(=O)Nc1ccn[nH]1	1.4	1.2
95	CC(C)N(Cc1nc2ccccc2[nH]1)C(C)C	-0.17	1.3
96	CC1c2ccsc2CCN1C(=O)c1cccs1 (stereo not drawn)	0.8	0.05
97	O=C(/C=C/c1ccccc1)Nc1nc(-c2ccccc2)cs1	0.18	1.1
98	N=c1scc(-c2ccccc2)n1-c1cc(C(F)(F)F)ccc1N1CCOCC1	-0.39	-0.35
99	CCOC(=O)C1C(=O)Oc2ccc3ccccc3c2C1C1CCOC1=O (stereo not drawn)	1.7	-0.3
100	CCOC(=O)c1[nH]c(CN2CCN(c3ccc(OC)cc3)CC2)c(C(=O)OCC)c1C	.	-0.4
101	CC(=O)OCC(=O)c1ccc(S(C)(=O)=O)cc1	-0.57	.
102	N#Cc1c(-c2cccs2)cc(-c2ccccc2)[nH]c1=O	3	1.1
103	O=S(=O)(c1ccc(N2CN(S(=O)(=O)c3ccc(Cl)cc3)c3nc4ccccc4nc32)cc1)N1CCOCC1	.	0.35
104	Cc1nc2sc3c(c2c(-c2cccs2)c1C(N)=O)CCCC3	.	0.7
105	O=S(=O)(Nc1cccnc1)c1ccc2c(c1)OCCO2	-0.41	2.2
106	COc1ccc(OCC(O)CNC(=O)Nc2cc(C)cc(C)c2)cc1 (stereo not drawn)	1.1	-0.4
107	Cc1ccc(CSc2sc(C(=O)c3ccccc3)c(N)c2C#N)cc1	-0.78	.
108	CCOC(=O)c1[nH]c(=O)[nH]c1CSc1ccccn1	.	0.2
109	CC(C)Cn1[nH]c(CC(=O)O)cc1=O	.	0.8
110	CCc1cccc(NC(=O)Cn2ncn3c(cc4ccccc43)c2=O)c1	1.3	-0.4
111	CN(C(=O)CN1CCOCC1)C1(c2ccccc2Cl)CCCCC1=O (stereo not drawn)	.	0.15
112	C=CCNC(=O)c1cc2cnccc2nc1C(F)(F)F	-0.37	.
113	Cc1cc(C(=O)Nc2ccccc2)c(C)n1Cc1cccs1	0.52	-0.95
114	CSc1nnc(-c2ccc(C(C)(C)C)cc2)n1C	8.7	0.25
115	CCOC(=O)c1sc2nc(C)nc(N(C)C3CCCCC3)c2c1C	2	.
116	CN1C(=O)/C(=C/c2ccc(O)cc2)SC1=Nc1ccc(Cl)cc1	-0.53	-0.3
117	O=S(=O)(Nc1nc2ccc(Cl)cc2s1)c1cccs1	.	0.55
118	Cc1ccc(CNC(=O)CCCc2nnc3n4nc(C)nc4c4ccccc4n23)cc1	9.1	-0.5
119	O=C(CCN1C(=O)/C(=C/c2cccs2)SC1=S)Oc1ccc2oc(=O)sc2c1-c1ccccc1Cl	0.055	.
120	CC(=O)Nc1ccc2sc(NC(=O)CN3CCOCC3)nc2c1	.	-0.6
